# From PubChem
# gsp antag: antagonists of gsp mutant (McCune-Albright syndrome). gsp-mutant cells, cAMP HTRF, 30 min; control for the full effect not named in the record. Potency, µM (titrated, usually from 76.9 µM), without a hit: top-dose activity change, negative = inhibition, actives largely listed as inhibitors. 0.4% of 340,000 active. AID 624288; active = falling curve of any shape with a large fitted effect; inconclusive = falling curve, mostly with a smaller effect; inactive = flat or rising curve; cell line not stated here;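 also: intracellular cAMP measured with PDE inhibitor Ro 20-1724 present during compound exposure; potency is read from the fitted curve at half-maximal effect; % is scaled to controls: 0 for no effect and ±100 for the full control effect; nearly all actives have a fitted effect of over 65% in size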
#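 Cells, 2000/well, grown 16–24 h in DMEM 10% FBS with 0.5 mg/ml G418, then compounds plus […] (300 uM addition stock), 30 min at 37C. cAMP read by HTRF (cAMP-d2 and anti-cAMP antibody-K in lysis buffer) after 30 min RT.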
# TRPML1 agonist: human mucolipin-1 channel agonism; Q9GZU1; TRPML1-expressing cells, Ca2+ dye fluorescence, FDSS; host cell line not named in the record; reference of the full effect not given here; activation, % (test concentration not listed); 0.12% of 410,000 active; in the data active = activation above about 50%; inconclusive = about 30% to 50%; inactive = below about 30%; also: 0% is about no effect; the text of the record puts the active cut at 80%
# Target sequence (Q9GZU1 whole entry, looked up): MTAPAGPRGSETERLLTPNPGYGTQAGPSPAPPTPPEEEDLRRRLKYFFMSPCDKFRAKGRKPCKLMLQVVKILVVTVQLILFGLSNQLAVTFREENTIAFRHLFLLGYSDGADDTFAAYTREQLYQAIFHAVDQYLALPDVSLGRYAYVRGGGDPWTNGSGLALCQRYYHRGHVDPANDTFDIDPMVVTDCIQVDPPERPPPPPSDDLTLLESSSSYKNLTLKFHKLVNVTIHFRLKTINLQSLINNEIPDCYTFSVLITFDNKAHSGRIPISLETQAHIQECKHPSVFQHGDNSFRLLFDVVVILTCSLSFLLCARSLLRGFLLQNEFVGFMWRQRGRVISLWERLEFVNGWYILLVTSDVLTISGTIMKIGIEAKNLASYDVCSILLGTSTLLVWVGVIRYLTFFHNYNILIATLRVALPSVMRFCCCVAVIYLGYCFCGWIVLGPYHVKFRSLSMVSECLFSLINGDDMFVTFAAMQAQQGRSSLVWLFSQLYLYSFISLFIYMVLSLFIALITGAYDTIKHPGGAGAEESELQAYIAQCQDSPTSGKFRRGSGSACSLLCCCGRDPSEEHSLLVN
#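 Kinetic FDSS Ca2+ read in Tet-induced TRPML1-DL cells (ABD Ca8 dye plus quencher, 45-90 min RT loading): baseline, then compound, then 110 s agonist window; EC80 agonist 54-4 at 4uM final added afterwards for a 110 s antagonist window.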
# gsp agonist: activates gsp, the McCune-Albright syndrome mutation. 0.13% of 340,000 active. AID 624287. gsp mutant cells, cAMP HTRF, 30 min; control for the full effect not named in the record. Potency, µM (doses to about 76.9 µM), without a hit: at the highest dose activation (cAMP increase), most hits filed as activators; active = well fitted activation curve with a large enough effect; inconclusive = small, poorly fitted or top-dose-only effect, or another doubt; inactive = no such curve, though single readings can be large or run the other way; cell line not stated here;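 also: phosphodiesterase inhibitor Ro 20-1724 added with compounds to block cAMP breakdown; potency is read from the fitted curve at half-maximal effect; nearly all actives have a fitted effect of over 60% in size; about a fifth of the inactives were tested at one dose only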
#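 Cells stably selected in G418 were plated at 2000/well, grown 16-24 hr, then given compounds in DMSO with the PDE inhibitor […] (300 uM solution added) for 30 min at 37C; cAMP was read by HTRF.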
# Menin MLL FP FL: displaces fluorescein MLL peptide from human menin. FP activity change, % at 61.4 µM. 290,000 tested, under 10 active. Fluorescence polarization, fluorescein-MLL peptide displacement from menin; inconclusive = falling polarisation curve, or a change in total fluorescence; inactive = total fluorescence flat and polarisation flat or rising; no compound was filed as active; the % refers to the polarisation; negative = inhibition;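 also: % of control where 0% means no effect; inhibitors lower the polarisation; unlabelled MLL peptide was the positive control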
# TRPML1 blocker: human mucolipin-1 channel inhibition; 0.02% of 390,000 active; activity change, negative = inhibition, % (concentration not given with the values); TRPML1-inducible cells, Ca2+ dye fluorescence, FDSS; active compounds read low; inhibition of EC80 agonist-evoked calcium signal; Q9GZU1; in the data active means activity change below about -50%; inconclusive means about -30% to -50%; inactive means above about -30%;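 also: stimulus is agonist 54-4 at its EC80 concentration; % is scaled to controls: 0 for no effect and ±100 for the full control effect; the text of the record puts the active cut at -80%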
#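 Calcium fluorescence in TRPML1-DL cells induced overnight with Tet: a 110 s read after compound pin addition, then a 110 s antagonist read after challenge with 54-4 at 4 uM final (EC80).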
# ClpP mod: qHTS Assay for Activators of ClpP. ATP-dependent Clp protease proteolytic subunit (Bacillus subtilis (strain 168)), P80244. purified B. subtilis ClpP, FRET peptide cleavage, 20 min. Potency, µM (top dose mostly 57.5 µM), for inactives: top-dose activity change, negative = active. 1.9% of 340,000 active; active = well fitted falling curve with a large enough effect; inconclusive = small, poorly fitted or top-dose-only effect; inactive = no such curve, though single readings can be large or run the other way; also: potency is read from the fitted curve at half-maximal effect; the source files actives as falling curves though it sought activators and does not explain the sign; nearly all actives have a fitted effect of over 65% in size; many hits overshoot -100%
# Target sequence (P80244 whole entry, looked up): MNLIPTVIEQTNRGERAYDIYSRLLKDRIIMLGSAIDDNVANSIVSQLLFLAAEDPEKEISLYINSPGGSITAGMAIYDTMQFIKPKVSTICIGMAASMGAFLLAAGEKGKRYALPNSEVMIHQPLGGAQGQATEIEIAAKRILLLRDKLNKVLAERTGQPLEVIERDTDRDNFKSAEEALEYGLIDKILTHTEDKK
#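 ClpP 10 microg/mL final, pH 8 Tris/KCl buffer with BSA, glycerol, Tween-20; compound pinned in; FRET-FV substrate; RT 20 min; Ex320/Em430; ΔFRET vs ADEP 5.8 microM, DMSO, no enzyme.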
# * marks the source's active call; other numbers are inactive results; ? = inconclusive; nt = not tested or not shown; & = joins results of further samples; [ ] = another dose, or the depositor's remark.
SMILES	gsp antag	TRPML1 agonist	gsp agonist	Menin MLL FP FL	TRPML1 blocker	ClpP mod
COc1cccc(N(CC(=O)NCC2CCCO2)C(=O)CNS(=O)(=O)c2ccccc2)c1 (configuration not stated)	7%	-0.1	24%	-4.1	-16	nt
CCCCOC(=O)Nc1nc2ccc([N+](=O)[O-])cc2s1	8%	0.1	12%[15.4 µM]	0.2	4	nt
Cc1ccccc1-n1ncc2c(SCC(=O)NC3CCCC3)ncnc21	9%	-0.3	-3%[15.4 µM]	4.2	17	nt
Nc1cc(N)nc(SCC(=O)Nc2ccccc2N2CCOCC2)n1	2%	-0.1	29%[15.4 µM]	0.3	-6	nt
COc1ccc(Cl)cc1NC(=O)c1cccc([N+](=O)[O-])c1O	?	2.1	-3%	nt	-6	2.1%
CCOC(=O)C1=C(C)N=C2SC(C)C(=O)N2C1c1ccc(OC(C)=O)c(OC)c1 (configuration not stated)	11%	-1.3	-18%	6.0	19	-1.2%
COC(=O)C1(C)NC(c2cccs2)C2C(=O)N(c3ccccc3F)C(=O)C21 (configuration not stated)	9%	-1.0	-2%	3.7	-5	-0.9%
Cc1ccc(-n2nnc3c(sc4nc(C)c(C)cc43)c2=O)cc1Cl	nt	-0.3	nt	nt	-8	0.6%
CC1CCN(c2nc3c(S(=O)(=O)c4ccc(Cl)cc4)nnn3c3ccsc23)CC1	nt	0.3	nt	nt	14	-0.6%
CCCCOC(=O)c1ccc(NC(=O)C(=O)NCCN(CC)CC)cc1	13%	-0.1	5%[15.4 µM]	-1.3	-1	nt
CC1CC(C)CN(C(=O)/C=C/c2ccc(S(=O)(=O)N3CCOCC3)cc2)C1 (configuration not stated)	-11%	0.2	1%	nt	16	-2.7%
CCn1c(=NC(=O)CS(=O)(=O)c2ccccc2)sc2cccc(OC)c21	?	1.7	5%[15.4 µM]	nt	16	-26%
Cc1nn(C2CCS(=O)(=O)C2)c(C)c1CN(C)C(=O)c1cccc(Cl)c1 (configuration not stated)	9%	-0.2	?	nt	-15	-1.6%
O=C(O)C1C2CCC(C2)C1C(=O)NCCCn1ccnc1 (configuration not stated)	0%	0.8	9%	6.9	-22	-1.7%
CN(CC(=O)Nc1ccccc1Br)C(=O)c1sccc1-c1ccccc1	-18%	-2.2	24%	nt	29	-1.2%
O=C(NC(=S)NNC(=O)c1ccccc1[N+](=O)[O-])c1ccc(Br)cc1	-2%	-0.5	-12%	-1.9	-14	nt
COCC(=O)N1CCC(Oc2ccc(C(=O)NC(C)c3nc(C)sc3C)cc2)CC1 (configuration not stated)	15%	-0.3	44%	2.6	-9	-0.9%
Cc1cc(C)nc(SCC(=O)OCC(=O)Nc2nc3ccccc3s2)n1	-2%	1.5	-19%[15.4 µM]	9.0	?	-1.8%
CC(=O)Nc1ccc(SCC(=O)Nc2ccccc2N2CCOCC2)cc1	0%	-0.4	6%[15.4 µM]	nt	-3	-0.2%
COc1ccc2nc(SCC(=O)N3CC(=O)Nc4ccccc43)c(C#N)cc2c1	-5%	6.2	-15%	13	19	-11%
Cc1cnc(NC(=O)c2c(-c3ccccc3)noc2C)s1	8%	1.1	?	-4.2	-15	-1.8%
Nc1ccc(N=Nc2ccc(O)cc2)c(N)n1	-1%	1.9	-10%	nt	-2	15%
CC(C)(C)CNc1cc(N2CCOCC2)ccc1[N+](=O)[O-]	-7%	2.4	-122%[inhibitor]	-5.2	26	nt
Cc1ccc(S(=O)(=O)N2CCCC(N3CCOCC3)C2)cc1Cl (configuration not stated)	2%	0.0	-3%	-3.3	-3	-1.8%
Cc1ccc(-c2noc(CNC(=O)c3ccc(Br)o3)n2)cc1	nt	1.6	nt	nt	12	-0.2%
Cc1cc(C)c(Cn2c3ccccc3c3cnn(CC(=O)NCC(C)c4ccccc4)c(=O)c32)c(C)c1 (configuration not stated)	nt	1.0	nt	nt	-9	?
O=C(Cn1cc(C(=O)c2ccco2)c2ccccc21)Nc1ccccc1Cl	nt	0.8	nt	nt	-11	?
N#Cc1nc(-c2ccccc2Cl)oc1NCc1ccco1	8%	0.3	3%	4.9	0	?
Cc1ccc(/C=N/NC(=O)Cn2nnc(N)n2)o1	1%	0.0	4%[15.4 µM]	2.3	4	-0.2%
CCn1c(O)c(/C=C2\C=Nc3ccccc32)sc1=Nc1ccccc1	4%	2.7	-10%	?	13	-3.5%
NNc1nc(-c2ccccc2)cc(-c2ccc(Br)cc2)n1	-8%	0.7	-23%	0.8	-7	nt
CCN(CCCNC(=O)Cn1ncc2c([nH]c3ccc(C)cc32)c1=O)c1cccc(C)c1	4%	-0.3&3.8	-68%[inhibitor]	0.7	3&-7	-23%&-0.1%
CCOc1ccc2[nH]c(=O)c(CN(Cc3nnnn3CCc3ccccc3)CC3CCCO3)cc2c1 (configuration not stated)	-4%	2.6	29%	-0.7	-1	?
Cc1ccc2c(c1)N(CCC(=O)NCc1ccco1)C(=O)CO2	6%	-0.2	11%	4.8	-2	1.6%
Nc1nc(SCC(=O)Nc2ccc([N+](=O)[O-])cc2)n[nH]1	-1%	0.8	5%[15.4 µM]	0.8	-12	-2.2%
COc1ccc(-n2nc(C(=O)NCC(=O)NCc3ccccc3OC)c3ccccc3c2=O)cc1	3%	0.2	1%	4.1	-7	nt
Cc1cc(C)n(-c2ccc(C(=O)N3CCN(S(=O)(=O)c4ccc(C(C)C)cc4)CC3)cc2)n1	-18%	4.9	-13%	nt	21	-5.0%
O=c1c(-c2ccc(F)cc2)[n+]([O-])c2ccccc2n1OCc1ccccn1	3%	-1.0	-3%[15.4 µM]	-3.7	-3	nt
Cc1cccc2c1-c1sc(C(=O)NCc3ccccc3Cl)cc1CO2	nt	-0.1	nt	nt	-2	4.1%
O=C1c2ccccc2C(=O)N1CC(O)COc1ccc(Cl)cc1 (configuration not stated)	0%	1.0	-6%	-0.7	-18	nt
O=C(O)CN1CCN(Cc2ccccc2)C1=O	1%	-0.2	-8%	2.7	-10	0.8%
CCCCCn1c(N)c(-c2nc3ccccc3o2)c2c([N+](=O)[O-])nn(C)c(=O)c21	8%	0.2	9%	1.1	0	?
O=C(NCCN1CCCCC1)Nc1cccc(F)c1	3%	0.0	8%	0.4	6	nt
N#CCC(=O)Nc1ccc(C(=O)N2CCN(c3ccccn3)CC2)cc1	6%	0.8	-19%	7.2	6	nt
CCC(C(=O)NCCN1CCOCC1)n1nc(C)n2c(cc3sccc32)c1=O (configuration not stated)	20%	0.7	?	nt	-12	-8.2%
Cc1ccc(NC(=O)CSc2nnc(C)n2C2CC2)cc1S(=O)(=O)N1CCOCC1	6%	0.8	10%	nt	6	1.1%
Cc1cccc2c1cnn2C(=O)CCC(=O)NCc1ccc(F)cc1	1%	0.3	-14%	-0.9	22	-3.1%
CC(=O)N1C(=O)/C(=C2\SC(=S)N(NS(=O)(=O)c3ccc(C)cc3)C2=O)c2ccccc21	-5%	3.3	17%	0.4	2	0.8%
COc1ccc(-c2nc(CNS(=O)(=O)c3ccc(Br)cc3)cs2)cc1	nt	1.0	nt	nt	12	?
Cc1cc(Br)cc(Br)c1OCC(=O)NNC(=O)c1ccoc1C	-7%	-0.6	-12%	nt	-7	-1.0%
Cc1ccc2c(c1)nnn2C1CCN(C(=O)c2cccs2)CC1	5%	0.7	-4%	3.6	15	-2.7%
Cc1cc(Cl)cc(Cl)c1OCCOCCN(C)C	30%	-0.4	-5%	-2.9	2	1.4%
CC(Oc1ccccc1C(N)=O)C(=O)Nc1ccc(S(=O)(=O)N2CCCC2)cc1 (configuration not stated)	-3%	1.9	-4%[15.4 µM]	nt	9	nt
CC1CN(C(=O)c2cccc(S(=O)(=O)N3CCN(c4ccc(F)cc4)CC3)c2)CC(C)O1 (configuration not stated)	-1%	0.6	-3%	nt	-3	1.4%
CCCCCCCNC(=O)C1(CC2CC(c3ccccc3)=NO2)CCN(C(=O)OC(C)(C)C)CC1 (configuration not stated)	-16%	1.8	-24%	nt	9	-5.6%
COc1ccc(-c2nnc(NC(=O)CS(=O)(=O)c3ccc(F)cc3)o2)c(OC)c1	-6%	-0.4	4%[15.4 µM]	nt	8	nt
Cc1cccc(CSCCNC(=O)c2ccc(N(C)S(=O)(=O)c3ccccc3)cc2)c1	-19%	-0.3	-42%[inhibitor]	-1.9	2	0.8%
Cc1ccc2ccccc2c1COC(=O)c1nonc1N	1%	1.3	-12%	8.6	8	-0.8%
CC(C)c1ccc(N2C(=O)C3C4C=CC(CC4)C3C2=O)cc1 (configuration not stated)	9%	-0.8	-27%	-4.2	6	-2.9%
O=C(OCc1nc2scc(-c3ccccc3)c2c(=O)[nH]1)c1cc([N+](=O)[O-])ccc1Cl	?	0.8	?	0.5	13	-25%

# The listing continues:
SMILES	gsp antag	TRPML1 agonist	gsp agonist	Menin MLL FP FL	TRPML1 blocker	ClpP mod
Cc1cccc([C@@H]2[C@@H]3C(=O)N(Cc4ccccc4)C(=O)[C@@H]3[C@]3(Cc4ccccc4)C(=O)N(c4cccc(F)c4)C(=O)N23)c1	0%	-0.2	?	nt	-8	-4.5%
O=c1cc[nH]c2ccc(Cl)cc12	2%	-0.7	?	2.2	24	-8.0%
Cc1ccc([C@H]2C[C@@H](O)[C@H](n3cc(C4CC4)nn3)CN2Cc2cccs2)cc1	nt	1.2	-43%[inhibitor]	nt	31	-1.8%
CC(C)c1ccc(C(=O)Nc2cccc3cccnc23)cc1	nt	-0.7	nt	nt	3	1.1%
CCOC(=O)Cn1c(=O)oc2cc(S(=O)(=O)Nc3ccc(F)cc3)ccc21	5%	4.6	-69%[inhibitor]	?	12	0.8%
Cc1nn(-c2ccc(NC(=O)c3ccncc3)cc2)c(C)c1Cl	?	0.5	-4%	4.0	9	nt
CC(=O)Nc1ccc(S(=O)(=O)N2CCC(N3CCN(Cc4ccc(C)cc4)C(=O)C3=O)CC2)cc1	nt	-0.5	nt	nt	4	3.3%
O=C(NCC(c1ccco1)S(=O)(=O)c1ccc(Cl)cc1)c1ccc(C(F)(F)F)cc1 (configuration not stated)	nt	2.3	nt	nt	1	-0.6%
COC(=O)C1=C(C)Nc2sc(C(N)=O)c(N)c2C1c1ccncc1 (configuration not stated)	-12%	0.1	4%	2.0	19	?
CC(c1nc2ccccc2c(=O)[nH]1)N(C)CCOc1ccc(Cl)cc1 (configuration not stated)	-4%	-0.8	-2%	0.2	-8	1.5%
Cc1ccccc1C(=O)Nc1ccc(C(=O)N/N=C/c2ccc(O)c(Br)c2)cc1	?	-1.0	-13%[15.4 µM]	4.0	21	nt

# Compounds as they come; any-hit rate near 2.1%.
